# High-throughput results as filed in PubChem.
# DUX4 inh: inhibitors of DUX4-driven ZSCAN4 reporter expression, primary screen, 293T cells, Gaussia and Italica luciferase; activity change, negative = inhibition, % (no concentration beside the values); AID 1224904, 2016; actives 0.8% (n = 37,000); 293T-iDUX4 ZSCAN4-Gaussia luciferase reporter, 24 h; stronger effect = lower value;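 active = -10% or lower and over 25 points stronger than a control reporter; inconclusive = -10% or lower with a smaller gap; inactive = above -10%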;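 note: 0% = median of neutral control wells and -100% = median of positive control wells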
# DUX4 inh difference: recorded beside DUX4 inh, whose call it bears; Gaussia minus Italica difference, %; measured here: selective DUX4 reporter inhibition;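 worked out from the two reporters; negative = selective loss of the DUX4 reporter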
# DUX4 inh control: also measured in DUX4 inh; calls as there; activity change, negative = inhibition, %; measured here: Italica tet-on control reporter;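 0 = neutral control and -100 = positive control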
# * marks the source's active call; other numbers are inactive results; ? = inconclusive; . = not tested or not shown; & = joins results of further samples. These rows are one share of the data (hit frequency here may not be typical).
SMILES,DUX4 inh,DUX4 inh difference,DUX4 inh control
c1cncc(-c2ccc(C3[C@H]4CNC[C@@H]3N4CC3CC3)cc2)c1 (stereo partly drawn),19.4,21.1,-1.7
O=C(Cc1ccccn1)N1CC2(C1)[C@H](c1ccccc1)[C@H](CO)N2Cc1ccccn1,?,.,.
COC(=O)[C@@H]1[C@@H](CO)[C@@H]2Cn3c(ccc(C4=CCCC4)c3=O)[C@H]1N2CC1CCCC1,10.3,10.0,0.3
COc1cccc(-c2ccc3n(c2=O)C[C@@H]2[C@@H](CO)[C@H](C(=O)O)[C@H]3N2Cc2ccccc2F)c1,2.9,2.9,0.0
COC(=O)[C@H]1[C@H](CO)[C@H]2Cn3c(ccc(-c4cncnc4)c3=O)[C@@H]1N2S(=O)(=O)c1ccccc1C,2.1,4.0,-1.9
CC=Cc1ccc2n(c1=O)C[C@H]1[C@H](CO)[C@@H](C(=O)OC)[C@@H]2N1CC1CC1 (mixture of isomers),3.0,-4.0,7.0
O=C(O)[C@@H]1[C@@H](CO)[C@@H]2Cn3c(ccc(-c4ccncc4)c3=O)[C@H]1N2C(=O)C1CCC1,1.1,-0.4,1.4
COC(=O)C[C@H]1CC[C@H]2NC[C@H](O)COC[C@@H]2O1,6.7,3.4,3.3
O=C(Cc1cccnc1)N1CCCCN2[C@@H](CO)[C@@H](c3ccc(C#CC4CCCC4)cc3)[C@@H]2C1,?,.,.
COc1ccc(C#Cc2ccc([C@@H]3[C@H](CO)N4CCCCN(C(=O)Cc5cccnc5)C[C@@H]34)cc2)cc1,?,.,.
O=C(O)C[C@@H]1CC[C@H]2NC[C@@H](O)COC[C@@H]2O1,6.5,3.6,2.9
C/C=C/c1ccc(C2[C@H]3CNC[C@@H]2N3Cc2ccccn2)cc1 (stereo partly drawn),10.8&14.4,0.6&19.1,10.1&-4.8
Cc1ccc(OC(=O)N(C)C[C@H]2OCc3ccccc3-c3c(n(C)c4ccccc34)C(=O)N([C@@H](C)CO)C[C@@H]2C)cc1,?,.,.
CC(C)NC(=O)N1[C@@H]2c3ccc(-c4cccc(C(=O)N(C)C)c4)c(=O)n3C[C@H]1[C@H](CO)[C@H]2C(=O)O,0.5,-2.1,2.6
Cc1cccc(S(=O)(=O)N2[C@@H]3c4ccc(-c5cccc(F)c5)c(=O)n4C[C@H]2[C@H](CO)[C@H]3C(=O)O)c1,3.0,1.6,1.4
COC(=O)[C@@H]1[C@@H](CO)[C@@H]2Cn3c(ccc(-c4ccc(OC)cc4)c3=O)[C@H]1N2C(=O)c1ccccc1F,-0.7,3.9,-4.5
COC(=O)[C@H]1[C@H](CO)[C@H]2Cn3c(ccc(-c4ccccc4)c3=O)[C@@H]1N2CCc1ccccc1,-0.5,-13.7,13.2
O=C(Cc1ccccn1)N1CCCCN2[C@H](CO)[C@@H](c3ccc(C#Cc4ccccc4)cc3)[C@@H]2C1,?,.,.
COC(=O)C[C@H]1CC[C@H]2NC[C@@H](O)COC[C@@H]2O1,14.4,11.7,2.8
N#Cc1ccc(-c2ccc([C@@H]3[C@H]4CN(C(=O)Cc5ccccc5)CCCCN4[C@H]3CO)cc2)cc1,-7.3,7.3,-14.6
O=C(Cc1ccccc1)N1CCCCN2[C@H](CO)[C@@H](c3ccc(C#CC4(O)CCCC4)cc3)[C@@H]2C1,-4.7,-0.1,-4.5
COC(=O)[C@H]1[C@H](CO)[C@H]2Cn3c(ccc(-c4ccncc4)c3=O)[C@@H]1N2CCc1ccccc1,-0.6,1.4,-2.1
C/C=C/c1ccc(C2[C@@H]3CN(C(=O)C4CCOCC4)C[C@H]2N3)cc1 (stereo partly drawn),-3.0&4.0,-11.1&-10.8,8.1&14.9
O=C(O)[C@@H]1[C@@H](CO)[C@@H]2Cn3c(ccc(-c4ccccc4)c3=O)[C@H]1N2C(=O)C1CCCCC1,-5.1,-0.8,-4.4
COC(=O)[C@@H]1[C@@H](CO)[C@@H]2Cn3c(ccc(C4=CCCC4)c3=O)[C@H]1N2C(=O)CC1CC1,-1.5,-3.0,1.4

# 15 of the compounds above, bar-delimited:
molecule | DUX4 inh | DUX4 inh difference | DUX4 inh control
c1cncc(-c2ccc(C3[C@H]4CNC[C@@H]3N4CC3CC3)cc2)c1 (stereo partly drawn) | 19.4 | 21.1 | -1.7
O=C(Cc1ccccn1)N1CC2(C1)[C@H](c1ccccc1)[C@H](CO)N2Cc1ccccn1 | ? | . | .
COC(=O)[C@@H]1[C@@H](CO)[C@@H]2Cn3c(ccc(C4=CCCC4)c3=O)[C@H]1N2CC1CCCC1 | 10.3 | 10.0 | 0.3
COc1cccc(-c2ccc3n(c2=O)C[C@@H]2[C@@H](CO)[C@H](C(=O)O)[C@H]3N2Cc2ccccc2F)c1 | 2.9 | 2.9 | 0.0
COC(=O)[C@H]1[C@H](CO)[C@H]2Cn3c(ccc(-c4cncnc4)c3=O)[C@@H]1N2S(=O)(=O)c1ccccc1C | 2.1 | 4.0 | -1.9
CC=Cc1ccc2n(c1=O)C[C@H]1[C@H](CO)[C@@H](C(=O)OC)[C@@H]2N1CC1CC1 (mixture of isomers) | 3.0 | -4.0 | 7.0
O=C(O)[C@@H]1[C@@H](CO)[C@@H]2Cn3c(ccc(-c4ccncc4)c3=O)[C@H]1N2C(=O)C1CCC1 | 1.1 | -0.4 | 1.4
COC(=O)C[C@H]1CC[C@H]2NC[C@H](O)COC[C@@H]2O1 | 6.7 | 3.4 | 3.3
O=C(Cc1cccnc1)N1CCCCN2[C@@H](CO)[C@@H](c3ccc(C#CC4CCCC4)cc3)[C@@H]2C1 | ? | . | .
COc1ccc(C#Cc2ccc([C@@H]3[C@H](CO)N4CCCCN(C(=O)Cc5cccnc5)C[C@@H]34)cc2)cc1 | ? | . | .
O=C(O)C[C@@H]1CC[C@H]2NC[C@@H](O)COC[C@@H]2O1 | 6.5 | 3.6 | 2.9
C/C=C/c1ccc(C2[C@H]3CNC[C@@H]2N3Cc2ccccn2)cc1 (stereo partly drawn) | 10.8&14.4 | 0.6&19.1 | 10.1&-4.8
Cc1ccc(OC(=O)N(C)C[C@H]2OCc3ccccc3-c3c(n(C)c4ccccc34)C(=O)N([C@@H](C)CO)C[C@@H]2C)cc1 | ? | . | .
CC(C)NC(=O)N1[C@@H]2c3ccc(-c4cccc(C(=O)N(C)C)c4)c(=O)n3C[C@H]1[C@H](CO)[C@H]2C(=O)O | 0.5 | -2.1 | 2.6
Cc1cccc(S(=O)(=O)N2[C@@H]3c4ccc(-c5cccc(F)c5)c(=O)n4C[C@H]2[C@H](CO)[C@H]3C(=O)O)c1 | 3.0 | 1.6 | 1.4

# (cont.)
SMILES,DUX4 inh,DUX4 inh difference,DUX4 inh control
O=C(O)[C@H]1[C@H](CO)[C@H]2Cn3c(ccc(-c4ccncc4)c3=O)[C@@H]1N2C(=O)C1CC1,-6.2,-8.8,2.6
C/C=C/c1ccc([C@@H]2[C@H](CO)N3CCCCN(C(=O)Cc4cccnc4)C[C@@H]23)cc1,11.3,19.8,-8.4
C[C@H]1CN([C@@H](C)CO)C(=O)CCCn2cc(nn2)CO[C@H]1CN(C)C(=O)Oc1ccc2ccccc2c1,-4.1,1.8,-5.8
C[C@@H]1CN([C@@H](C)CO)C(=O)CCCn2cc(nn2)CO[C@@H]1CN(C)C(=O)Oc1ccc2ccccc2c1,1.8,7.5,-5.6
O=C(Cc1ccccn1)N1CCCCN2[C@H](CO)[C@H](c3ccc(-c4ccccc4)cc3)[C@H]2C1,0.2,9.7,-9.5
O=C(Cc1ccccn1)N1CC2(C1)[C@@H](c1ccccc1)[C@@H](CO)N2Cc1ccccn1,?,.,.
COC(=O)[C@@H]1[C@@H](CO)[C@@H]2Cn3c(ccc(-c4ccccc4)c3=O)[C@H]1N2S(=O)(=O)c1ccccc1C,-2.2,-10.0,7.7
CCCN1[C@@H]2c3ccc(-c4cccc(C(=O)N(C)C)c4)c(=O)n3C[C@H]1[C@H](CO)[C@H]2C(=O)OC,4.9,7.3,-2.4
C[C@H](CO)N1C[C@H](C)[C@H](CN(C)C(=O)Oc2ccc3ccccc3c2)OCc2cn(nn2)CCCC1=O,4.9,10.3,-5.4
C[C@H](CO)N1C[C@H](C)[C@@H](CN(C)C(=O)Oc2cccc3ccccc23)OCc2cnnn2CCCC1=O,8.3,14.2,-5.9
COC(=O)[C@H]1[C@H](CO)[C@H]2Cn3c(ccc(C4=CCCC4)c3=O)[C@@H]1N2CC1CCCC1,4.2,-7.0,11.2
O=C(Cc1ccccn1)N1CCCCN2[C@@H](CO)[C@H](c3ccc(C#Cc4ccccc4)cc3)[C@@H]2C1,?,.,.
CC=Cc1ccc2n(c1=O)C[C@H]1[C@H](CO)[C@@H](C(=O)OC)[C@@H]2N1C(=O)CC1CC1 (mixture of isomers),1.8,8.8,-7.0
CCCN1[C@@H]2Cn3c(ccc(-c4ccc(OC)cc4)c3=O)[C@H]1[C@@H](C(=O)OC)[C@@H]2CO,-2.3,-5.2,3.0
CCCNC(=O)N1[C@@H]2c3ccc(-c4ccccc4OC)c(=O)n3C[C@H]1[C@H](CO)[C@H]2C(=O)O,11.0,10.0,1.0
COC(=O)[C@@H]1[C@@H](CO)[C@@H]2Cn3c(ccc(-c4ccccc4F)c3=O)[C@H]1N2CC1CCCC1,-8.7,-9.5,0.7
COc1ccccc1CN1[C@@H](CO)[C@@H](c2ccccc2)C12CN(C(=O)Cc1ccccc1)C2,?,.,.
O=C1CNC[C@H]2[C@@H](c3ccc(Br)cc3)[C@H](CO)N12,-0.9,0.4,-1.3
COC(=O)[C@@H]1[C@@H](CO)[C@@H]2Cn3c(ccc(-c4ccc(F)cc4)c3=O)[C@H]1N2C(C)=O,1.5,-10.7,12.2
O=C(Cc1cccnc1)N1CCCCN2[C@H](C1)[C@@H](c1ccc(C#CC3CCCC3)cc1)[C@@H]2CO,-9.2,-1.4,-7.8
CCCNC(=O)[C@H]1[C@H](CO)[C@H]2Cn3c(cccc3=O)[C@H]2N1CC,4.4,16.5,-12.0
O=C(O)[C@@H]1[C@@H](CO)[C@@H]2Cn3c(ccc(-c4ccncc4)c3=O)[C@H]1N2C(=O)C1CCCC1,2.0,1.7,0.3
COC(=O)[C@@H]1[C@@H](CO)[C@@H]2Cn3c(ccc(-c4cccc(F)c4)c3=O)[C@H]1N2Cc1cccnc1,18.3,15.3,3.0
COC(=O)[C@@H]1[C@@H](CO)[C@@H]2Cn3c(cccc3=O)[C@@H]2N1CC1CC1,5.8,2.4,3.4
O=C(Cc1ccncc1)N1CCCCN2[C@H](CO)[C@H](c3ccc(C#Cc4ccccc4F)cc3)[C@@H]2C1,-38.5*,-32.7*,-5.8*

# (listing goes on)
SMILES,DUX4 inh,DUX4 inh difference,DUX4 inh control
C[C@H]1CN([C@@H](C)CO)C(=O)CCCn2nncc2CO[C@H]1CN(C)C(=O)Oc1ccc2ccccc2c1,-1.7,2.3,-3.9
C/C=C/c1ccc([C@H]2[C@@H](CO)N3CCCCN(C(=O)Cc4cccnc4)C[C@H]23)cc1,4.6,9.2,-4.7
O=C(O)[C@@H]1[C@@H](CO)[C@@H]2Cn3c(ccc(C4=CCCCC4)c3=O)[C@H]1N2CCc1ccccc1,-3.0,-0.4,-2.7
CC=Cc1ccc2n(c1=O)C[C@H]1[C@H](CO)[C@@H](C(=O)O)[C@@H]2N1S(=O)(=O)c1ccccc1F (mixture of isomers),3.9,-0.4,4.3
CC=Cc1ccc2n(c1=O)C[C@@H]1[C@@H](CO)[C@H](C(=O)OC)[C@H]2N1C(=O)CC1CC1 (mixture of isomers),-1.7,4.3,-6.0
O=C(Cc1cccnc1)N1CCCCN2[C@H](CO)[C@H](c3ccc(C#CC4CCCC4)cc3)[C@@H]2C1,?,.,.
CCC(=O)N1[C@@H]2c3ccc(-c4ccc(F)cc4)c(=O)n3C[C@H]1[C@H](CO)[C@H]2C(=O)OC,0.5,-3.6,4.0
O=C(Cc1ccccn1)N1CCCCN2[C@H](CO)[C@H](c3ccc(-c4ccccc4)cc3)[C@@H]2C1,0.3,-2.1,2.4
N#Cc1ccc(-c2ccc([C@@H]3[C@H](CO)N4CCCCN(C(=O)Cc5ccccc5)C[C@@H]34)cc2)cc1,9.4,10.1,-0.6
O=C(Cc1ccccn1)N1CCCCN2[C@H](C1)[C@@H](c1ccc(C#Cc3ccccc3)cc1)[C@@H]2CO,?,.,.
O=C(Cc1ccccc1)N1CCCCN2[C@H](CO)[C@H](c3ccc(C#CC4(O)CCCC4)cc3)[C@@H]2C1,?,.,.
CC=Cc1ccc2n(c1=O)C[C@@H]1[C@@H](CO)[C@H](C(=O)OC)[C@H]2N1CC1CCCC1 (mixture of isomers),-5.2,-3.4,-1.8
O=C(Cc1ccccn1)N1CCCCN2[C@@H](CO)[C@@H](c3ccc(Br)cc3)[C@@H]2C1,-1.6,-8.9,7.3
CC=Cc1ccc2n(c1=O)C[C@@H]1[C@@H](CO)[C@H](C(=O)O)[C@H]2N1S(=O)(=O)c1ccccc1F (mixture of isomers),-0.7,-6.1,5.4
O=C(O)[C@H]1[C@H](CO)[C@H]2Cn3c(ccc(C4=CCCCC4)c3=O)[C@@H]1N2C(=O)Cc1ccccn1,0.7,-3.0,3.8
COC(=O)[C@H]1[C@H](CO)[C@H]2Cn3c(cccc3=O)[C@@H]1N2CCc1ccccc1,2.0,6.7,-4.7
O=C(Cc1ccccc1)N1CCCCN2[C@H](C1)[C@@H](c1ccc(C#CC3(O)CCCC3)cc1)[C@@H]2CO,0.0,-6.5,6.5
COC(=O)[C@@H]1[C@@H](CO)[C@@H]2Cn3c(ccc(-c4ccc(F)cc4)c3=O)[C@H]1N2C(=O)c1ccccc1F,-2.7,-8.3,5.5
